# Screening data deposited in PubChem by National Center for Advancing Translational Sciences (NCATS).
# ClpP mod = qHTS Assay for Activators of ClpP | 340,000 tested, 1.9% active | ATP-dependent Clp protease proteolytic subunit (Bacillus subtilis (strain 168)), P80244 | AID 651965, 2013 | purified B. subtilis ClpP, FRET peptide cleavage, 20 min | Potency, µM (titrated, usually from 57.5 µM), for inactives: top-dose activity change, negative = active; active = well fitted falling curve with a large enough effect; inconclusive = small, poorly fitted or top-dose-only effect; inactive = no such curve, though single readings can be large or run the other way; note: potency is the fitted concentration of half-maximal effect; the source files actives as falling curves though it sought activators and does not explain the sign; nearly all actives have a fitted effect of over 65% in size; many hits overshoot -100%
# Target sequence (P80244 whole entry, looked up): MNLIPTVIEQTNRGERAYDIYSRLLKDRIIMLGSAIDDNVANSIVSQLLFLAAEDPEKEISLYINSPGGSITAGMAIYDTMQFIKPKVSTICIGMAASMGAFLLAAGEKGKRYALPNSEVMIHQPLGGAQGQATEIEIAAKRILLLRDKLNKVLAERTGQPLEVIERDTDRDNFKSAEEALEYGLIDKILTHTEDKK
#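 FRET quenching reversal measured ClpP activation: 10 microg/mL B. subtilis ClpP at pH 8 with the FRET-FV decapeptide, read at 430 nm after 320 nm excitation. The 20-min minus 0-min signal was scaled between DMSO/no-enzyme wells and ADEP (5.8 microM final).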
# TRPML1 blocker = inhibitors of human TRPML1 channel | Q9GZU1 | AID 624415 | activity change, negative = inhibition, % (concentration not given with the values) | TRPML1-inducible cells, Ca2+ dye fluorescence, FDSS; hits give low values; inhibition of EC80 agonist-evoked calcium signal | 390,000 tested, 0.02% active; in the data active means activity change below about -50%; inconclusive means about -30% to -50%; inactive means above about -30%;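 note: stimulus is agonist 54-4 at its EC80 concentration; % is set by controls: 0 for no effect and ±100 for the full control effect; compound concentration not given in the record; the text of the record puts the active cut at -80%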
#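 Calcium fluorescence in TRPML1-DL cells induced overnight with Tet: a 110 s read after compound pin addition, then a 110 s antagonist read after challenge with 54-4 at 4 uM final (EC80).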
# Menin-MLL FL inh = displaces fluorescein MLL peptide from human menin. FP activity change, % at 61.4 µM. 290,000 tested, under 10 active. Fluorescence polarization, fluorescein-MLL peptide displacement from menin; inconclusive = falling polarisation curve, or a change in total fluorescence; inactive = total fluorescence flat and polarisation flat or rising; no compound was filed as active; the % refers to the polarisation; negative = inhibition;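 note: % of control where 0% means no effect; inhibitors lower the polarisation; unlabelled MLL peptide was the positive control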
# Sfp PPTase inh = blocks B. subtilis Sfp PPTase activity | Potency, µM, without a hit: max response, negative = inhibition, most hits filed as inhibitors | Biochemical Sfp PPTase activity, qHTS | AID 1490 | 310,000 tested, 3.5% active | Q9F4F7; active = well fitted inhibition curve with a large enough effect; inconclusive = small, poorly fitted or top-dose-only effect, or another doubt; inactive = no such curve, though single readings can be large or run the other way;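 note: the enzyme is Sfp with the accession as filed and its product quenches rhodamine fluorescence; potency is the fitted concentration of half-maximal effect; 0% = enzyme reaction without inhibitor and -100% = no enzyme wells; top concentration of the series not given in the record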
#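 Compounds were incubated with enzyme (final 15 nM) for 15 min at room temperature before substrate addition started the reaction. Fluorescence at 525 nm excitation, 598 nm emission was recorded immediately and after 30 minutes.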
# gsp ag = agonists of gsp mutant (McCune-Albright syndrome). gsp mutant cells, cAMP HTRF, 30 min; control for the full effect not named in the record. Potency, µM (top dose mostly 76.9 µM), without a hit: top-dose activation (cAMP increase), usual class: activators. 340,000 tested, 0.13% active. AID 624287; active = well fitted activation curve with a large enough effect; inconclusive = small, poorly fitted or top-dose-only effect, or another doubt; inactive = no such curve, though single readings can be large or run the other way; cell line not stated here;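 note: phosphodiesterase inhibitor Ro 20-1724 added with compounds to block cAMP breakdown; potency is the fitted concentration of half-maximal effect; nearly all actives have a fitted effect of over 60% in size; about a fifth of the inactives were tested at one dose only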
#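 Cells stably selected in G418 were plated at 2000/well, grown 16-24 hr, then given compounds in DMSO with the PDE inhibitor […] (300 uM solution added) for 30 min at 37C; cAMP was read by HTRF.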
# TRPV1 potentiator = potentiators of human vanilloid receptor 1 (TRPV1); TRPV1-expressing cells, Fluo-8 calcium influx, capsaicin EC20 potentiation; host cell line not named in the record; control for the full effect not named in the record; potentiation, % at 8.33 µM; 320,000 tested, 0.02% active; AID 540277; active means potentiation above 80%; inconclusive means 30% to 80%; inactive means below 30%; note: 0% is about no effect
# Target sequence (Q8NER1 whole entry, looked up): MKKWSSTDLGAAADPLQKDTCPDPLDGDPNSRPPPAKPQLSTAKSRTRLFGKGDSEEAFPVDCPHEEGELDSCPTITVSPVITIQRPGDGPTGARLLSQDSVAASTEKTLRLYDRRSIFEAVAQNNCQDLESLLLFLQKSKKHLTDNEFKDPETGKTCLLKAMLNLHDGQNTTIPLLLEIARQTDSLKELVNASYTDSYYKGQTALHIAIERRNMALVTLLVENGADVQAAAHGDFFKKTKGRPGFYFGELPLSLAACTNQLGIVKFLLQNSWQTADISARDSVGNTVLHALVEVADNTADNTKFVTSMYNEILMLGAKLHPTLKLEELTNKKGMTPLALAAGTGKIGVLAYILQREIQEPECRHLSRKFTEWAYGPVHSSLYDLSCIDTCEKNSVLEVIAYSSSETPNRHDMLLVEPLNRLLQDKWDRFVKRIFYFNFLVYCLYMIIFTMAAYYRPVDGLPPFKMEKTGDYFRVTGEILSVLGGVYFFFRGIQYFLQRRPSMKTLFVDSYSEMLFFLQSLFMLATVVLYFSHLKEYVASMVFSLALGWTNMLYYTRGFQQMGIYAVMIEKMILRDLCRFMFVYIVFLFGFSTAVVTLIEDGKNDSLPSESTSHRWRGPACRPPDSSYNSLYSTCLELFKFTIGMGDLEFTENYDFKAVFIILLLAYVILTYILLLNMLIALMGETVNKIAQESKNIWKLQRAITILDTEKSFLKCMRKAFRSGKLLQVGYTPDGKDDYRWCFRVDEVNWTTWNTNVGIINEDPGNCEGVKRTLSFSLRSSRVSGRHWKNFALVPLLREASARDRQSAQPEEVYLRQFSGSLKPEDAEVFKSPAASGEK
#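 TRPV1-expressing cells were cultured overnight at 35.5C and loaded with Fluo-8 calcium dye for 40 to 90 min at room temperature. After a 10 s baseline, compound was added and calcium influx was read kinetically for 3 min (ex 480/em 520 nm).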
# gsp antag = gsp mutant antagonism; gsp-mutant cells, cAMP HTRF, 30 min; control for the full effect not named in the record; Potency, µM (doses to about 76.9 µM), inactives show at the highest dose activity change, negative = inhibition, hits mostly inhibitors; 340,000 tested, 0.4% active; AID 624288; active = falling curve of any shape with a large fitted effect; inconclusive = falling curve, mostly with a smaller effect; inactive = flat or rising curve; cell line not stated here;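 note: intracellular cAMP measured with PDE inhibitor Ro 20-1724 present during compound exposure; potency is the fitted concentration of half-maximal effect; % is set by controls: 0 for no effect and ±100 for the full control effect; nearly all actives have a fitted effect of over 65% in size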
#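 G418-selected cells were plated in DMEM/10% FBS for 16-24 h at 37C, then treated with compounds plus the PDE inhibitor […] (300 uM solution added) for 30 min at 37C. Intracellular cAMP was measured by HTRF after 30 min lysis at room temperature.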
# Active calls of the source: *; ? = inconclusive; / = no result given; [ ] = remark or other dose. Compounds were not picked by outcome; any-hit rate near 4.9%.
smiles	gsp antag	TRPV1 potentiator	gsp ag	Sfp PPTase inh	ClpP mod	TRPML1 blocker	Menin-MLL FL inh
CC(C)c1nnc(NC(=O)c2sc3ccccc3c2Cl)s1	-11%	?	?	7%	-0.2%	6	-2.3
CCCC1CCC(=NNC(=S)NCCc2ccccc2)CC1 (centres undefined)	-12%	-3	5%[15.4 µM]	-4%	2.3%	-4	3.9
COc1cc(C(C(=O)NC2CCCCC2)N(C(=O)Cc2c[nH]c3ccccc23)c2ccc(C)cc2)cc(OC)c1OC (centres undefined)	12%	2	?	16%	-0.6%	13	5.3
COc1ccc(NC(=O)CSc2n[nH]c(=O)n2Cc2ccccc2)cc1Cl	-4%	10	-6%[15.4 µM]	-6%	/	16	6.2
CCN1C(=O)NC(c2ccccc2)C1=O (centres undefined)	12%	4	/	/	-0.8%	3	/
CC(C)CC1NC(=O)N(CC(=O)Nc2cc([N+](=O)[O-])ccc2F)C1=O (centres undefined)	7%	/	-33%[inhibitor]	/	-9.4%	-5	/
COCc1ccc(C(=O)N2CCCC(C(=O)c3cccc(C(F)(F)F)c3)C2)o1 (centres undefined)	9%	-9	20%	13%	0.5%	-20	0.5
COCc1c(C(=O)OCc2nnc(-c3ccc([N+](=O)[O-])cc3)o2)oc2ccccc12	3%	/	-17%	/	?	31	/
O=C(O)CCCN1C(=O)/C(=C\C(Cl)=C\c2ccccc2)SC1=S	-21%	3	17%	-28%	0.0%	/	?
COc1cnc(-c2ccccn2)nc1Oc1c(C)cccc1C	15%	4	-13%	15%	/	-5	0.7
O=C(Nc1ccncc1)c1cc(-c2ccccn2)nc2ccccc12	-2%	-2	-7%[15.4 µM]	7%	/	9	-0.1
CCc1ccc(NC(=O)c2cnn3c(C(F)F)cc(C)nc23)cc1	-10%	12	15%	5%	/	5	-0.9
O=C(CN1CCCCC1)NCC(=O)Nc1ccc(F)c(F)c1F	9%	-6	2%	/	1.2%	10	/
CC1(C)OC(C(=O)NC2CCCCC2)C(C(=O)NC2CCCCC2)O1 (centres undefined)	-2%	-22	24%	26%	-0.3%	0	-4.1
Cc1ccc(CNC(=O)c2ccccc2NC(=O)CN2CC(C)OC(C)C2)cc1 (centres undefined)	-3%	-16	-3%[15.4 µM]	17%	/	24	0.4
COc1ccccc1NC(=O)C(C)OC(=O)Cn1cnc2c1c(=O)n(C)c(=O)n2C (centres undefined)	13%	5	24%	/	0.4%	-2	/
Cc1ccc(S(=O)(=O)N2CCN(C(=O)CCC(=O)NCc3cccc(C(F)(F)F)c3)CC2)cc1	-13%	1	0%	/	-1.1%	14	/
O=C(CSc1c2c(nc3ccc(Cl)cc13)CCCC2)N1CCN(C(=O)c2ccco2)CC1	-14%	/	?	/	0.4%	-11	/
CSc1nc2sc3c(c2c(=O)n1C)CCC(C)C3 (centres undefined)	0%	-6	13%	2%	-6.5%	20	3.6
CCc1ccc(NC(=O)COC(=O)/C(=C/c2ccccc2OC)c2ccccc2)cc1	-2%	-2	15%	23%	-6.6%	5	3.7
Cc1ccc([N+](=O)[O-])cc1N(CC(=O)NC1CCCC1)S(C)(=O)=O	1%	12	20%[15.4 µM]	-11%	-2.6%	4	-1.2
COc1ccc(NC(=O)c2cc(-c3ccco3)on2)cc1	4%	-14	22%[15.4 µM]	13%	/	7	6.2
CCOC(=O)C1=CN(Cc2cccc(F)c2)S(=O)(=O)N(CC)C1c1ccc(F)c(Cl)c1 (centres undefined)	-5%	/	/	/	-2.0%	-5	/
O=C1CSC(=S)N1/N=C/c1cccnc1	-6%	4	-1%[15.4 µM]	?	/	21	2.6
CC(C)CNC(=O)c1ccccc1NC(=O)CSCc1ccccc1	-6%	7	0%	-10%	1.1%	-12	0.2
CCn1nc(C)c(CNC(=O)C2CCC(=O)N(Cc3ccc(Cl)cc3)C2)c1C (centres undefined)	15%	-16	-7%[15.4 µM]	6%	-0.8%	2	/
CCOCCCn1c(=N)c(S(=O)(=O)c2ccc(C)cc2)cc2c(=O)n3cc(C)ccc3nc21	-10%	-1	27%	-7%	/	2	?
Cc1cc(C)c(OCC(=O)N/N=C/c2ccc3c(c2)OCO3)c(C)c1	24%	4	-11%[15.4 µM]	6%	1.2%	3	5.4
CCCC(C(=O)Nc1ccncc1)c1ccccc1 (centres undefined)	8%	4	-6%	6%	1.4%	-13	/
Cc1ccsc1C(=O)NC(C)c1ccccc1 (centres undefined)	-1%	1	-6%	0%	/	13	-1.7
CC(=O)C(C)Oc1ccc2c3c(c(=O)oc2c1C)CCCC3 (centres undefined)	-7%	-22	-6%	3%	98%	-23	2.7
CCC(C)[C@H](NC(=O)[C@@H]1CSC2c3ccccc3C(=O)N21)C(=O)NCc1ccco1 (some centres undefined)	-2%	1	25%	?	-1.8%	8	6.5
Cc1ccccc1C(=O)N1CCN(c2ccc(NC(=O)c3cccnc3)cc2)CC1	-2%	20	9%[15.4 µM]	11%	-2.9%	6	0.3
CNC(=S)NNC(=O)c1cccn(Cc2cccc(Cl)c2)c1=O	9%	7	19%	20%	80%	26	5.3
O=C(COC(=O)c1cc2ccccc2cc1O)NCc1ccccc1	6%	/	?	/	/	3	/
O=C(NC1CCCC1)C(c1ccc(Cl)cc1)N(C(=O)c1csnn1)C1CC1 (centres undefined)	2%	10	-25%	8%	/	-7	1.7
CCOC(=O)n1cc(C(=O)c2ccccc2O)cn1	3%	4	8%[15.4 µM]	11%	/	11	0.3
COC(=O)c1[nH]c(C)c(/C(O)=C2\C(=O)C(=O)N(CCN3CCOCC3)C2c2cccs2)c1C (centres undefined)	14%	4	17%	-1%	-1.4%	-5	-0.6
COc1ccc(C(=O)/C=C/Nc2ccc(NC(C)=O)cc2)cc1OC	-5%	4	20%	15%	0.6%	10	5.7
COc1ccccc1CNC(=O)c1cccc2c1C(=O)N(Cc1cccnc1)C2	-9%	8	33%	19%	0.3%	-6	0.7
CCCn1c(N)c(C(=O)COC(=O)/C=C/c2ccc(OC(F)F)c(OC)c2)c(=O)[nH]c1=O	8%	/	25%	/	/	-4	/
COc1ccc(Nc2ccc(OC)cc2)cc1	0%	-5	0%	2.8µM*	/	1	-0.2
COCc1c(C(=O)NC2CCCCCC2)oc2ccccc12	5%	-14	?	-12%	/	6	-0.2
C=CCn1c(C(C)NC(=O)c2ccccc2)n[nH]c1=S (centres undefined)	-6%	-4	5%	9%	-1.7%	11	2.6
C#CCOCCOCCOCCNc1nc(N2CCOCC2)nc(N2CCN(C(=O)CCCCCCCCCCNC(=O)[C@H]([C@@H](C)CC)n3cc(CCCCN=C(N)N)nn3)CC2)n1	0%	21	/	/	2.1%	-2	/
CC(=O)Nc1nc2cc3c(cc2s1)OCCO3	-1%	11	8%	-3%	-2.9%	1	-2.8
Clc1ccccc1OCCCCN1CCCC1	7%	1	-17%	-8%	5.1%	1	0.1
N#CC1=C(O)CCCn2c1nc1ccccc1c2=O	-9%	1	5%	-2%	-6.0%	4	-0.8
COc1ccc(OCC(=O)NNc2c3ccccc3nc3ccccc23)cc1	32µM*	17	-10%	-22%	7.1%	51	-2.3
CCOc1ccc(C2CC(c3cccc(OC)c3)n3nc(N)nc3N2)cc1 (centres undefined)	0%	15	-44%[inhibitor]	33%[activator]	-3.8%	9	7.6
CCOC(=O)Cn1nc(CC)c2ccccc2c1=O	0%	-13	?	10%	-2.1%	31	4.8
CC(=O)Nc1cc2c(cc1NC(=O)Cn1nc(-c3ccccc3)ccc1=O)OCCO2	-3%	5	6%	11%	/	-1	/
O=C(NC(=S)Nc1ccc2oc(=O)ccc2c1)c1cc2ccccc2o1	-3%	-6	-6%[15.4 µM]	12%	0.4%	-2	2.7
CCOc1ccc(NCc2nnc(SCC(=O)Nc3nc(-c4ccccc4)cs3)n2-c2ccccc2)cc1	2%	7	-12%	16%	0.7%	22	-0.1
CCN(CC)S(=O)(=O)c1ccc(N2CCCC2)c(C(=O)OCC(=O)Nc2cc(C)on2)c1	-3%	-17	12%	21%	-2.0%	11	1.4
CCCCc1cc2ccccc2c(OCCN(C)C)n1	22%	?	-2%	-2%	-4.1%	22	-0.3[24.8 µM]
CCOC(=O)CSc1nc(N)c2c3c(sc2n1)CCCC3	-20%	-9	-15%	-5%	-12%	-18	4.8
Cc1ccc2nc(-c3cc(-c4ccccc4)no3)cn2c1	6%	-9	11%[15.4 µM]	5%	/	19	-2.4
Cn1ccnc1SCC(=O)Nc1ccc2c(c1)OCCO2	7%	-16	4%	9%	4.7%	11	/
COc1ccc(SCC(=O)Nc2ccccc2Cl)cc1	-10%	-9	8%	11%	/	-18	-5.7

# New compounds follow:
smiles	gsp antag	TRPV1 potentiator	gsp ag	Sfp PPTase inh	ClpP mod	TRPML1 blocker	Menin-MLL FL inh
CC1CCN(c2cc(N3CCN(C(=O)c4ccc(F)c(F)c4)CC3)c([N+](=O)[O-])cc2F)CC1	-13%	-9	-3%	23%	-1.1%	53	6.6
CCCCn1c(N)c(Sc2ccc(C)cc2)c(=O)[nH]c1=O	4%	-17	-36%[inhibitor]	9%	-2.0%	17	-0.4
O=C(Nc1ccc2oc(-c3cccnc3)nc2c1)c1ccc(Br)o1	-2%	4	1%	50µM*	?	4	3.5
CN(C)c1ccc(C(O)P(=O)(OC2CCCCC2)OC2CCCCC2)cc1 (centres undefined)	2%	24	6%	-14%	/	-2	1.9
CCCCCCn1c(=O)n2n(c1=O)C[C@]1(OC(=O)NCc3ccccc3F)CN(S(=O)(=O)c3ccc(C)cc3)C[C@]1(O)C2	/	/	-43%[inhibitor]	/	-1.0%	10	/
